GIRK2 activ = GIRK2 channel activation; HEK293-GIRK2 thallium flux, Thallos fluorescence; AID 1259325; 63,000 compounds, 0.05% hits; calls only for hits at 25 µM; P48051;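 active means among the strongest 0.2% of first-round signals and kept after retests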;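 further: first round at about 10 µM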
Target sequence (P48051 whole entry, looked up): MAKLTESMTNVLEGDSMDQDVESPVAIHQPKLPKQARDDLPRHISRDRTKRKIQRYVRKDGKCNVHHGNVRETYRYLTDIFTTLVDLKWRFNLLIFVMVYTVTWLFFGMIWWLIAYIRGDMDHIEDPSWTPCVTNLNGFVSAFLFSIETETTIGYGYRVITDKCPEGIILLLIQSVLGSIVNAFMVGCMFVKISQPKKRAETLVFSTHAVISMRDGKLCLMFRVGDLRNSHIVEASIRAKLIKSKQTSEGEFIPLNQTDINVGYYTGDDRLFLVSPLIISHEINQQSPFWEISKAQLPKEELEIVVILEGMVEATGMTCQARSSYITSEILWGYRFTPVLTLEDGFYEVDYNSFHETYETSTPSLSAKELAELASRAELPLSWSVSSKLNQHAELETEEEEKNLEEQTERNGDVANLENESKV
Calls only; i = inactive.

SMILES | GIRK2 activ
Cc1cc(C(F)(F)F)nc(CCNC(=O)c2cccc(N(C)C)c2)n1 | i
O=C(CSc1ncccc1-c1nc(-c2cccs2)no1)NCc1ccccc1Cl | i
CC(=O)c1ccc(NC(=O)Cn2nc(C3CCN(S(C)(=O)=O)CC3)n(C)c2=O)cc1 | i
COc1cccc(S(=O)(=O)NCc2ccc(C(=O)Nc3ccc(Cl)c(Cl)c3)cc2)c1 | i
O=C(NCc1ccccn1)c1csc2nc(-c3cccs3)cn12 | i
CC(C)NC(=O)CSc1nnc(N2CCN(C(=O)c3ccco3)CC2)s1 | i
Cc1nnc(NC(=O)c2coc(NC(=O)c3ccccc3)n2)s1 | i
Cc1ccc(CN2C(=O)C(=O)c3cc(C)cc(C)c32)cc1 | i
Cn1cc(C(=O)N2CCN(CCNC(=O)c3ccc4c(c3)OCO4)CC2)nn1 | i
COC(=O)c1ccc(NC(=O)C(=O)NC(C)Cc2cccs2)cc1 (centres undefined) | i
CSc1cccc(-n2ccc(=O)c(-c3nc(-c4ccc(Cl)cc4)no3)n2)c1 | i
Cc1c(C(=O)N2CC(c3nc(-c4ccncc4)no3)C2)cnn1-c1ccccc1 | i
O=c1c(SCc2cccc([N+](=O)[O-])c2)nccn1-c1ccc(Br)cc1 | i
CCN1CCc2nc(-c3ccccc3)n(CC(=O)Nc3ccccc3OC)c(=O)c2C1 | i
Cc1cccc(C)c1N1CCN(S(=O)(=O)N2CCCCCC2)CC1 | i
COc1cccc(N2CC(C(=O)N3CCCC(COCc4ccccc4)C3)CC2=O)c1 (centres undefined) | i
COc1ccc(CCC(=O)NCC2CCN(C)CC2)cc1 | i
CCc1ccc(Oc2nccc(-c3c(-c4ccc(F)cc4)ncn3C3CCNCC3)n2)cc1 | i
CCOc1ccc(-c2noc(Cn3nc(-c4ccc5c(c4)OCO5)ccc3=O)n2)cc1 | i
CC(C)(C)NC(=O)N1CCC(CNC(=O)c2cccs2)CC1 | i

(list continues)
SMILES | GIRK2 activ
Cc1cn2c3c(=O)n(Cc4ccc(Cl)c(Cl)c4)c(=O)n(C)c3nc2n1CCCl | i
COc1ccc(CC(=O)Nc2ccc3c(c2)N(S(=O)(=O)c2ccc(C)cc2)CCC3)cc1 | i
COC(=O)c1ccc(S(=O)(=O)NCC(O)c2ccc3c(c2)CCO3)cc1 (centres undefined) | i
CCOC(=O)c1cnn(-c2ncnc3c2cnn3Cc2ccc(Cl)cc2)c1N | i
CNS(=O)(=O)c1cccnc1Nc1cccc(C(C)C)c1 | i
CC1Oc2ccccc2OC1C(=O)Nc1ccc2c(c1)C(=O)Nc1ccccc1O2 (centres undefined) | i
O=C(CCSc1ccccc1)Nc1ccc(-n2nnc(C(=O)NC3CCCC3)n2)cc1 | i
COc1cccc(NC(=O)COc2coc(CSc3nncn3C)cc2=O)c1 | i
CSc1ccc(-c2noc(CCn3nc(-c4ccc5c(c4)OCO5)ccc3=O)n2)cc1 | i
O=[N+]([O-])c1ccc(C=Nc2ncn[nH]2)cc1 | i
COc1ccccc1-c1cn2nnc(C(=O)Nc3nc(C)cs3)c2c(=O)[nH]1 | i
COc1cc(NC(=O)Cn2nc3ccc(SC(C)C)nn3c2=O)cc(OC)c1 | i
COc1cccc(-c2nn(-c3ccccc3)cc2C2CC(c3ccccc3)=NN2S(C)(=O)=O)c1 (centres undefined) | i
O=C1c2oc3ccccc3c(=O)c2C(c2cccc(Br)c2)N1CCO (centres undefined) | i
O=C1NC(=N[C@@H](CO)c2ccccc2)S/C1=C\c1ccc2ncccc2c1 | i
Cc1ccc(C)c(S(=O)(=O)N2CCCC(c3nnc(-c4cccs4)o3)C2)c1 (centres undefined) | i
Cc1ccc(Oc2ccc(N(C)S(=O)(=O)c3ccc(C(F)(F)F)cc3)cc2)nn1 | i
COc1cccc(C(=O)NC2CCN(C(=O)c3cn(-c4ccc(C)c(C)c4)nn3)CC2)c1 | i
COc1cccc(NC(=O)Cn2nc3ccc(-c4ccc(C)c(C)c4)nn3c2=O)c1 | i
O=C(Nc1cccc(-c2ccn[nH]2)c1)c1cc(-c2cccs2)[nH]n1 | i

Shown as labelled records: entries from further up
CCOC(=O)c1cnn(-c2ncnc3c2cnn3Cc2ccc(Cl)cc2)c1N
  GIRK2 activ = i

CNS(=O)(=O)c1cccnc1Nc1cccc(C(C)C)c1
  GIRK2 activ = i

CC1Oc2ccccc2OC1C(=O)Nc1ccc2c(c1)C(=O)Nc1ccccc1O2 (centres undefined)
  GIRK2 activ = i

O=C(CCSc1ccccc1)Nc1ccc(-n2nnc(C(=O)NC3CCCC3)n2)cc1
  GIRK2 activ = i

(list continues)
SMILES | GIRK2 activ
CCn1c(SCC(=O)Nc2ccc3c(c2)OCO3)nc2sc3c(c2c1=O)CCCC3 | i
O=C(Nc1nc(-c2ccc(F)cc2)cs1)C1CCN(S(=O)(=O)c2ccc(F)cc2)CC1 | i
O=C(Nc1ccc(S(=O)(=O)N2CCN(c3cnccn3)CC2)cc1)c1ccc([N+](=O)[O-])o1 | i
COCCCn1c(C(=O)N2CCC(C(N)=O)CC2)cc2c(=O)n(C)c(=O)n(C)c21 | i
COc1cc(NC(=O)COc2ccccc2[N+](=O)[O-])c(OC)cc1Cl | i
Cn1c(SCC(=O)N2CCCCC2)nc2c(-c3ccccc3)csc2c1=O | i
Cc1cc(NCCN(C)C)n2nc(C(F)(F)F)c(-c3ccccc3Cl)c2n1 | i
Cc1cc(NC(=O)c2cccs2)n(-c2nc(-c3ccc(Cl)cc3)cs2)n1 | i
COc1ccc(NC(=O)Nc2cnc(N(C)C)nc2)cc1Cl | i
O=C(CN1CCC(c2nnc(C(F)(F)F)o2)CC1)N1CCC(Cc2ccccc2)CC1 | i
O=C(Nc1ccc(SCCCC(=O)N2CCN(c3ccccc3F)CC2)nn1)C1CC1 | i
O=C(Nc1nc2c(s1)CN(S(=O)(=O)c1ccc3c(c1)OCCO3)CC2)c1ccco1 | i
Cc1cc(C)n(CC(=O)Nc2cccc(Cl)c2)c(=O)c1C#N | i
COC(=O)c1ccc(C(=O)Nc2cc(C)nn2-c2nc3ccc(F)cc3s2)cc1 | i
C=CCn1c(SCC(=O)NC2CCCCC2)nc2sc(CC)cc2c1=O | i
CC(C)CCn1c(N2CCC(C(N)=O)CC2)nc2c1c(=O)n(C)c(=O)n2C | i
O=C(Cc1ccc(-c2ccccc2)cc1)NCC1(CO)CC1 | i
COc1cc(CCN2C(=O)c3cccc4cccc(c34)C2=O)c(S(=O)(=O)N2CCCCCC2)cc1OC | i
Cc1cc(N2C(=O)C(O)=C(C(=O)c3cccs3)C2c2ccc(Cl)c(Cl)c2)no1 (centres undefined) | i
COCC1CCN(S(=O)(=O)Cc2ccc(F)cc2)CC1 | i

Remaining list, next part:
SMILES | GIRK2 activ
O=S(=O)(c1cccc2ccccc12)N(CCc1cccs1)Cc1cccnc1 | i
NC(=O)c1nnn(-c2ccc(NC(=O)c3c(F)cccc3F)cc2)n1 | i
Cc1cc(C)n(-c2cc(NC(=O)CCc3c(C)noc3C)ncn2)n1 | i
Cc1oc(-c2ccc(Cl)cc2Cl)cc1-c1nnc(-c2ccco2)o1 | i
COc1cc(Cl)c(C)cc1NC(=O)CSc1ncc(S(=O)(=O)c2cccs2)c(N)n1 | i
Cc1ccccc1NS(=O)(=O)CCOc1ccccc1 | i
Cc1ccc(OCCn2c(C3CC(=O)N(Cc4ccccc4)C3)nc3ccccc32)cc1 (centres undefined) | i
O=C1CCSCC(C(=O)Nc2ccc(-n3cnnn3)cc2)N1 (centres undefined) | i
CC1CC(C)CN(CC(O)COc2ccccc2-c2ccccc2)C1 (centres undefined) | i
O=C(NCC1CCN(C(=O)c2ccncc2)CC1)Nc1cccc(C(F)(F)F)c1 | i
COc1ccc(N2CCN(CCNS(=O)(=O)c3ccc(Cl)s3)CC2)cc1 | i
COC(=O)N1CCC(CNC(=O)c2ccc(-c3ccccc3)cc2)CC1 | i
COc1cccc(-c2nnc(NC(=O)c3cnccn3)o2)c1 | i
COc1ccc(-c2nc(N)nc(C)c2-c2ccc(Cl)cc2)c(O)c1 | i
COc1ccc(NC(=O)c2ccoc2COc2ccc(C)cc2)cc1 | i
Cc1cccnc1NC(=O)C1CCCN(c2ccc(-c3cccs3)nn2)C1 (centres undefined) | i
CCCn1c(C(=O)NN2CCCC2=O)cc2c(=O)n(C)c(=O)n(C)c21 | i
CC(=O)Nc1onc2c1CSC2 | i
Cc1c(C(=O)N2CCN(c3ccccc3F)CC2)nnn1-c1nc(-c2ccccc2)cs1 | i
COc1cccc(C(=O)N2CCC(CSC3=NCCS3)CC2)c1OC | i

(next part)
SMILES | GIRK2 activ
Cc1cccc(C)c1OCCCn1c(C2CC(=O)N(C(C)(C)C)C2)nc2ccccc21 (centres undefined) | i
O=C(c1csc2nc(-c3ccc(F)cc3)cn12)N1CCN(Cc2ccccc2)CC1 | i
COc1ccc(OC)c(NC(=O)CCc2csc(NC(=O)NC3CCCCC3)n2)c1 | i
CC(C)Sc1ccc(CC(=O)N2CCC(Oc3ccc(C(F)(F)F)cn3)CC2)cc1 | i
COc1cccc(NC(=O)NNc2nc3c(-c4ccccc4)nnn3c3ccccc23)c1 | i
CC(C)(C)S(=O)(=O)c1ccc(NCCN2CCN(c3cccc(Cl)c3)CC2)nn1 | i
Cn1cccc1CN(Cc1cccs1)C(=O)C1COc2ccccc2O1 (centres undefined) | i
CCOc1ccccc1S(=O)(=O)N1CCC(OC)CC1 | i
O=C(NCc1ccc2c(c1)OCO2)C(=O)NCC1CCN(Cc2ccccc2)CC1 | i
O=C(Cn1c(=O)c(-c2ccccc2)nc2ccccc21)Nc1cc(F)ccc1F | i
O=C(NCC1(O)CCOc2ccccc21)c1cnccn1 (centres undefined) | i
COC(=O)c1sc2ccccc2c1S(=O)(=O)Nc1cccc(C(F)(F)F)c1 | i
Cc1cccc(C(=O)N2CCN(c3ncnc4c3nnn4-c3ccc(Cl)cc3)CC2)c1 | i
CCCCCCNC(=O)c1c(N)n(/N=C\c2cccnc2)c2nc3ccccc3nc12 | i
CCCC(=O)N1N=C(c2ccc(NS(C)(=O)=O)cc2)CC1c1cccs1 (centres undefined) | i
COc1nn(C)cc1C(=O)Nc1cccc(-c2cnc3n2CCC3)c1 | i
Cc1oc(-c2ccccc2)nc1CSc1nc2ccccc2n2c(C)nnc12 | i
N#CC1=CN(c2ccc(Cl)cc2)c2ccccc2S1(=O)=O | i
O=C(NCC(Cc1cccc(F)c1)N1CCNC1=O)c1ccc[nH]c1=O (centres undefined) | i
CC(C)CS(=O)(=O)NCC(C)(O)c1ccco1 (centres undefined) | i

(more compounds)
SMILES | GIRK2 activ
COc1cccc(S(=O)(=O)Nc2ccc(C(=O)N3CCOCC3)cc2)c1 | i
O=S(=O)(NCC(O)c1ccoc1)c1ccccc1Br (centres undefined) | i
O=c1[nH]c2c(-c3ccccn3)nsc2c(=O)n1Cc1ccco1 | i
CN(C)C(CNC(=O)C(=O)Nc1ccc2c(c1)N(S(C)(=O)=O)CCC2)c1cn(C)c2ccccc12 (centres undefined) | i
COC(=O)c1c(NC(=O)c2cc(C)no2)sc2c1CCN(C(C)=O)C2 | i
COc1ccc(-c2coc3cc(OCCN4CCN(C)CC4)ccc3c2=O)cc1 | i
O=C(CCC/C=C\C[C@H]1C(=O)C[C@@H](O)C1/C=C/[C@@H](O)CCc1ccccc1)NC(CO)CO (some centres undefined) | i
COc1ccc(NC(=O)c2cn(Cc3ccc(NC(=O)c4ccccc4F)cc3)cn2)cc1 | i
CS(=O)(=O)N1CCN(C(=O)c2cc(-c3ccco3)on2)CC1 | i
CCN1CCN(CCOc2ccc3cc(-c4ccc(OC)c(OC)c4)c(=O)oc3c2)CC1 | i
O=c1[nH]c2nc(NCCN3CCOCC3)ncc2c(=O)n1Cc1ccccc1 | i
CS(=O)(=O)Nc1cccc(NC(=O)c2cnn3c2OCCC3)c1 | i
O=C(Nc1cccs1)Nc1ccccc1NC(=O)c1ccccc1Cl | i
COc1nn(C)cc1C(=O)N1CCN(c2ccc(-c3noc(C)n3)cn2)CC1 | i
Cn1c(=O)c2c(nc(NCc3ccco3)n2Cc2ccc(F)cc2)n(C)c1=O | i
COc1ccc(OC)c(CNC(=O)Cc2nnc(-c3ccsc3)o2)c1 | i
COc1ccc(Nc2n[nH]c3nc4sc5c(c4c(=O)n23)CCCC5)cc1 | i
COc1cccc(NC(=O)N2CCN(c3nc4ccc(Cl)cc4s3)CC2)c1OC | i
Cc1ccc(C(C)C)c(OCC(O)CNCc2ccccc2)c1 (centres undefined) | i
COc1ccc2sc(N(CC3CCCO3)C(C)=O)nc2c1 (centres undefined) | i

The last 3 entries of the section before come first, to join the parts.
SMILES | GIRK2 activ
COc1cccc(NC(=O)N2CCN(c3nc4ccc(Cl)cc4s3)CC2)c1OC | i
Cc1ccc(C(C)C)c(OCC(O)CNCc2ccccc2)c1 (centres undefined) | i
COc1ccc2sc(N(CC3CCCO3)C(C)=O)nc2c1 (centres undefined) | i
COc1cc([N+](=O)[O-])cc2cc(C(=O)N3CCN(c4cccc(Cl)c4)CC3)c(=O)oc12 | i
CCc1ccc(NCc2cc3cc4c(cc3n(CC(=O)Nc3ccc(OC)cc3)c2=O)OCO4)cc1 | i
Cc1cc2oc(=O)cc(CN(C)CCC#N)c2cc1O | i
CCOc1ccccc1NC(=O)Cn1c2ccc(Cl)cc2c(=O)n1C(C)(C)C | i
Cn1cc(C(=O)N2CCN(CCn3ccnc3-c3ccccc3)CC2)nn1 | i
COc1ccc(C)cc1Nc1nc(C(=O)Nc2cccnc2)cs1 | i
COc1ccccc1N1CCN(C(=O)Cn2cnc3c([nH]c4ccccc43)c2=O)CC1 | i
COc1ccc(C(=O)Oc2ccc3c(=O)c(-c4nc5ccccc5s4)coc3c2)cc1 | i
O=C(Nc1cccc(N2CCCC2=O)c1)Nc1cccs1 | i

Compound activity from PubChem BioAssay.

A portion of the library (hit frequency here may not be typical).
